Vaccinia mCherry – vaccinia inhibition (mCherry reporter) | Potency, µM (series often up to 36.5 µM), for the others: at the highest dose activity change, negative = inhibition, usual class: inhibitors | actives 0.63% (n = 310,000) | Vaccinia virus mCherry reporter infection, fluorescence; about a quarter of the inactives have no number; active = well fitted inhibition curve with a large enough effect; inconclusive = small, poorly fitted or top-dose-only effect; inactive = no such curve, though single readings can be large or run the other way; tested in A549 cells; also: nearly all actives have a fitted effect of over 35% in size; inactives centre near -10
VACV Venus inh – vaccinia inhibition (Venus reporter); Vaccinia virus Venus reporter expression, fluorescence; Potency, µM (highest dose often 36.5 µM), for the others: at the highest dose activity change, negative = inhibition, actives largely listed as inhibitors; actives 0.46% (n = 330,000); active means well fitted inhibition curve with a large enough effect; inconclusive means small, poorly fitted or top-dose-only effect; inactive means no such curve, though single readings can be large or run the other way; tested in A549 cells; also: nearly all actives have a fitted effect of over 30% in size; inactives centre near -10
The depositor's hits bear a star; i = inactive; ? = inconclusive; / = not tested or not shown; & = joins results of further samples; [ ] = dose if it differs, or a comment. % is scaled to controls: 0 for no effect and ±100 for the full control effect; potency is read from the fitted curve at half-maximal effect.

compound	Vaccinia mCherry	VACV Venus inh
CCCCC(CC)CNC(=O)CCCCn1c(=O)[nH]c2ccsc2c1=O (configuration not stated)	2%&-10%	-10%&1%
CCc1ccc(Sc2cc(C(=O)NC(C)CC)c3ccccc3n2)cc1 (configuration not stated)	-3%	5%
Nc1nncn1C(=O)CCCOc1ccccc1	-10%	-1%
CCCn1cc(S(=O)(=O)c2ccc(CC)cc2)c(=O)c2ccccc21	-10%	-27%
Cc1cccc(NC(=S)N2CCN(Cc3ccccc3)CC2)c1C	i	-15%
Cc1ccc(NC(=O)CNc2ccc(N3CCOCC3)cc2)cc1S(=O)(=O)N(C)C	1%	-11%
FC(F)(F)c1cnc(-c2cnc(-c3ccncc3)nc2)c(Cl)c1	i	-19%
Cc1nn(Cc2ccccc2)c(C)c1CNC(=O)CN=C1NS(=O)(=O)c2ccccc21	-4%	-3%
O=C(COC(=O)CC1CCCC1)Nc1cc2c(cc1Cl)C(=O)c1ccccc1C2=O	29%	39%[activator]
CC(=O)NCC(=O)OCC(=O)c1ccc(Br)cc1	-12%	0%
NC(=O)Cc1ccc(C(=O)c2ccccc2F)s1	-1%	-3%
O=C(O)c1c2c(nc3ccccc13)/C(=C/c1ccc(O)cc1)CC2	i	1%
O=C(COc1ccccc1[N+](=O)[O-])NC1CC1	-10%	-10%
COC(=O)/C(=C/c1ccco1)NC(=O)c1ccc(Br)o1	-8%	-9%
Cc1occc1-c1nnc(SCCNCCO)o1	-19%	-4%
Cc1ccc(CNC(=O)/C=C/c2ccccc2Cl)cc1	/	-8%
CC(=O)c1cccc(NC(=O)CCCSc2nc(-c3ccco3)cc(C(F)(F)F)n2)c1	-5%	-8%
CC1=NN(c2nc(-c3ccccc3)cs2)C(=O)C1	-1%	-8%
COC(=O)c1cn(NC(=O)Cc2ccccc2OC)c(=O)c2ccccc12	-1%	-5%
O=[N+]([O-])c1ccc(N=Nc2c(O)[nH]c3ccc(F)cc23)cc1	-11%	-7%
Cc1cc(C)n(Cc2ccccc2Cl)n1	-22%	-10%
CCOC(=O)c1nn(-c2cccc(OC)c2)c2nc(Nc3ccccc3)cc(=O)n12	i	-29%
O=C(COC(=O)c1cc(=O)[nH]c(=O)[nH]1)Nc1ccccc1F	i	-7%
N[C@@H](CCC(=O)N[C@@H](CSN=O)C(=O)NCC(=O)O)C(=O)O	-2%	-7%
CCC(=O)N1c2ccc(S(=O)(=O)CCC(=O)NCc3cccc(OC)c3)cc2CC1C (configuration not stated)	11%	-1%
COc1cccc(-c2cc(C(=O)Nc3cnn(Cc4ccc(Cl)cc4Cl)c3)no2)c1	?	11µM*
CC(=O)Nc1ccc(NC(=O)c2cc(C3CC3)nc3c2cnn3C(C)C)cc1	?	1%
O=c1c(-c2ccc([N+](=O)[O-])cc2)coc2c(O)c(O)ccc12	?	?
Cc1ccc(CNS(=O)(=O)c2c(C)nc3scc(C)n3c2=O)cc1	-7%	7%
CCC(=O)Nc1cc(C(=O)OCC(=O)c2ccccc2)ccc1C	-11%	-18%
O=C(c1ccc2noc(-c3ccccc3)c2c1)N1CCN(c2ccccc2)CC1	-22%	-14%
CCOc1ccc(NC(=O)NCCCN2CCN(c3ccc(F)cc3)CC2)cc1	-6%	2%
Cc1ccc(/C=C2/N=C(c3ccccc3)NNC2=O)cc1	-17%	-2%
CC(C)n1c(SCC(=O)Nc2ccccc2N2CCCCC2)nc2c1c(=O)n(C)c(=O)n2C	i	-19%
O=C(CN1CCOc2ccccc21)NCc1ccco1	-8%	-6%
O=C(c1ccc(OCC2CCCO2)cc1)N1CCc2ccccc2C1 (configuration not stated)	i	-6%
COc1cccc(C(C(=O)NC2CCCC2)N(C(=O)c2ccco2)c2ccccc2)c1OC (configuration not stated)	-12%	-18%
CCOc1nc(C)ccc1-c1noc(-c2ccncc2)n1	-26%	-16%
COc1ccc(CCNC(=O)c2ccc(Br)cc2)cc1	i	-13%
O=C(NNc1ccccn1)C(=O)NNS(=O)(=O)c1ccc(Cl)cc1	-26%	-15%
COc1ccccc1-c1nnc(C2CCN(C(=O)c3ccc(C)cc3)CC2)o1	-9%	11%
CCOC(=O)N1CCN(C(C(=O)NC2CCCC2)C(C)C)CC1 (configuration not stated)	-15%	1%
O=C1C=CCCC1	i	-7%
COc1cc2cc(CN(C(=O)Nc3ccccc3)C3CCCC3)c(=O)[nH]c2cc1OC	/	-12%
CCCC(CCC)=NNc1ccc(S(=O)(=O)Nc2ccccc2OC)cc1[N+](=O)[O-]	-7%	-11%
CCOc1ccc(NC(=O)N2CC=C(n3c(=O)[nH]c4ccccc43)CC2)cc1	/	?
Cc1cc(NC(=O)CSc2ccc3c(c2)OCCO3)no1	/	-6%
Cc1nc(Cc2nnc(SC(C)C(=O)Nc3ccccc3)o2)cs1 (configuration not stated)	i	-4%
CC(=O)C1=C(C)NC(SCC(=O)c2ccc(F)cc2)=C(C#N)C1c1ccco1 (configuration not stated)	-7%	-18%
C=C(C)C1Cc2c(C)nn(-c3ccccn3)c2C1 (configuration not stated)	/	-3%
CC(C)C(=O)NNC(=O)c1csc(-c2cccs2)n1	-5%	-16%
CCOC(=O)CCc1c(C)n[nH]c1C	i	-10%
COc1cc(/C=N/n2cnn(Cc3ccccc3Cl)c2=S)cc(OC)c1OC	-22%	-17%
O=C(/C=C/c1cccs1)N1CCC2(CC1)Oc1ccc(F)cc1C(=O)C21CC(c2ccccc2)=NO1 (configuration not stated)	5%	-24%
COc1ccc(CC(=O)N[C@@H]2c3ccccc3CC[C@H]2OCc2ccccc2)cc1	i	-5%
OC(CNCc1cccc(Cl)c1)c1ccccc1 (configuration not stated)	-20%	-5%
Cc1cc(C)cc(NC(=O)N2CCC(NC(=O)c3ccco3)CC2)c1	i	0%
Cc1cc(N2CCCC2)ccc1NC(=O)COc1ccc(Cl)cc1	i	-8%
COc1ccc(C(C)=O)c2c1OCCO2	-15%	-9%
CC1(C)CC(=O)C=C(NCCc2ccc(S(N)(=O)=O)cc2)C1	/	10%

(cont.)
compound	Vaccinia mCherry	VACV Venus inh
Cc1ccc(CSCc2ccc(C(=O)NCCc3ccc(Cl)cc3)o2)cc1	-15%	-12%
Cc1nnc(N2C(=O)C(=O)/C(=C(/O)c3ccc4c(c3)OCCO4)C2c2cccc([N+](=O)[O-])c2)s1 (configuration not stated)	0%	-4%
O[C@@H]1CCCC[C@@H]1N1CCC(c2ccccc2)CC1	i	-13%
O=C(CN1C(=O)COc2ccc(S(=O)(=O)N3CCCCC3)cc21)NCc1ccc(Cl)cc1	-9%&-19%	-27%&-19%
CC1=NNC(=O)C1CC(=O)N/N=C(/C)c1cccc([N+](=O)[O-])c1 (configuration not stated)	5%	-8%
CCc1ccc(NC(=O)C(=O)NCC2CCCO2)cc1 (configuration not stated)	4%	-20%
Cc1ccc([C@@H]2CC=C(C(=O)O)CN2S(=O)(=O)c2ccc(C)cc2)cc1	-7%	8%
COc1ccc(Cl)cc1Nc1nc(N)c2ccccc2n1	-14%	-26%
O=C(CCCCCn1c(=O)c2sccc2n(Cc2ccc(Cl)cc2)c1=O)NCc1ccc2c(c1)OCO2	-1%	-16%
COc1ccc(C2C(C#N)=C(N)OC3=C2C(=O)CC(C)(C)C3)c(OC)c1OC (configuration not stated)	-14%	-7%
CCOC(=O)C1(CCOc2ccccc2)CCN(Cc2ccc(NC(C)=O)cc2)CC1	-11%	-9%
COc1ccc(C(c2nnnn2CCc2ccccc2)N2CCN(C3CCCC3)CC2)cc1 (configuration not stated)	-20%	-15%
CCCCCCCN1CCN=C1N(C)C	-16%	-9%
CCC(C)c1ccccc1NC(=O)C(C)N(C)Cc1cccc(OC)c1 (configuration not stated)	-6%	-17%
O=c1[nH]c(=S)n(-c2ccc(Cl)cc2)c(O)c1/C=N/N1CCOCC1	i	-8%

Single records, from the list above. Values in the order: Vaccinia mCherry, VACV Venus inh
O=C(CCCCCn1c(=O)c2sccc2n(Cc2ccc(Cl)cc2)c1=O)NCc1ccc2c(c1)OCO2 is entered as -1%, -16%
COc1ccc(Cl)cc1Nc1nc(N)c2ccccc2n1 is entered as -14%, -26%
CCOC(=O)C1(CCOc2ccccc2)CCN(Cc2ccc(NC(C)=O)cc2)CC1 is entered as -11%, -9%
Cc1ccc([C@@H]2CC=C(C(=O)O)CN2S(=O)(=O)c2ccc(C)cc2)cc1 is entered as -7%, 8%
COc1ccc(C2C(C#N)=C(N)OC3=C2C(=O)CC(C)(C)C3)c(OC)c1OC (configuration not stated) is entered as -14%, -7%

(continued)
compound	Vaccinia mCherry	VACV Venus inh
COc1ccccc1NS(=O)(=O)c1cccc(NS(=O)(=O)c2cc(C(=O)O)ccc2Cl)c1	i	-4%
O=Cc1ccc(N2CCCCC2)cc1	-4%	-4%
CCOc1ccc(NC(=O)CC2C(=O)N(c3ccc(C)cc3)C(=O)N2CCC2=CCCCC2)cc1 (configuration not stated)	-15%	-6%
COCCSc1ccccc1C(=O)N1CCCC(C)C1 (configuration not stated)	-2%	-8%
CCn1c2ccccc2c2cc(NC(=O)c3ccc([N+](=O)[O-])cc3)ccc21	/	?
N#Cc1c(-c2ccco2)ccn(Cc2cccc(F)c2)c1=O	-1%	-10%
CN1CCN(Cc2nnc3n2-c2ccc(Cl)cc2C(c2ccccc2)=NC3)CC1	i	-14%
O=C(CSc1ccc(-c2cccs2)nn1)Nc1ccccc1	-24%&-13%	-20%&-13%
O=C(NCCc1ccc(Cl)cc1)C1CCC(CNc2nc(=S)[nH]c3ccccc23)CC1 (configuration not stated)	-4%	-2%
COc1cc(/C=C/C(=O)OCC(=O)N2CCOCC2)ccc1OCC#N	-9%	-5%
CCn1c(C)c(C)c2cc(C(=O)NCCc3cc(OC)ccc3OC)ccc21	-4%	-4%
CC1=C(C)CC(C(=O)Nc2nc(-c3ccc(F)cc3)c(C)s2)C(C(=O)O)C1 (configuration not stated)	-2%	-2%
Cc1ccc(-c2noc(COc3ccc4c(c3)OCO4)n2)cc1	/	-16%
C/C(=N\NC(=O)c1cccc(N/N=C(\C)c2cc(O)ccc2O)c1)c1cc(O)ccc1O	?	-30%
CC(C)c1ccc(C(=O)Nc2cc(-c3ccccc3F)nn2-c2ccccc2)cc1	-22%	-11%
Cc1cc(C(=O)C(=O)O)c(C)n1-c1ccc(Cl)c(Cl)c1	i	2%
CN(N=Nc1nc[nH]c1C(=O)NN)C1CCCCC1	-11%	-8%
Cc1cc(C(F)(F)F)nn1CC(=O)N1CCOCC1	-14%	-5%
Cc1nc2c(ccc3nc(NC(=O)Cc4ccccc4)sc32)s1	-16%	-28%
Cc1ccc(C(CNS(=O)(=O)c2ccc(C)cc2)N2CCN(C)CC2)cc1 (configuration not stated)	-1%	-14%
CCOC(=O)NN1C(=O)c2ccccc2NC12CCCC2	-5%	-6%
CC1CN(C)C(C)(C)CC1(O)c1ccccc1 (configuration not stated)	-11%	-8%
O=c1[nH]c2ccccc2cc1CN(Cc1cccnc1)S(=O)(=O)c1ccc(Cl)cc1	?	-17%
COc1ccc(-n2c(SCC(=O)Nc3ccc(C(=O)O)cc3)nnc2-c2cccs2)cc1	0%	3%
O=C(NCc1ccccc1Cl)C1=Cc2cc(Br)ccc2OC1	-7%	2%
COc1ccc(OC)c(S(=O)(=O)n2nnc3cc(Cl)ccc32)c1	-2%	7%
COc1ccc(OCC(=O)N2N=C(C(F)F)CC2(O)C(F)F)cc1 (configuration not stated)	-14%	-20%
COc1ccc(CNC(=O)C2CCN(S(=O)(=O)N3CC(C)CC(C)C3)CC2)cc1 (configuration not stated)	-22%[7.34 µM]	-17%[7.34 µM]
S=c1[nH]nc(-c2ccn[nH]2)n1-c1ccccc1Cl	i	-17%
O=C1C2=C(Nc3ccccc3SC2c2ccc(C(F)(F)F)cc2)c2ccccc21 (configuration not stated)	?	?
O=S1(=O)CC(N2CCN(CCO)CC2)CN1Cc1cn(Cc2ccccc2)nn1 (configuration not stated)	-3%	-5%
COc1ccccc1C(=O)Nc1ccc(OCc2nnc3c4ccccc4c(C)nn23)cc1	-23%	-14%
Cc1c(Cl)cccc1Nc1nc2ccc(C(=O)c3ccccc3)cc2n2cnnc12	-25%	-7%
Cc1nn(CC(=O)c2ccc3c(c2)OCCO3)c(=O)c(C#N)c1C	-12%	1%
CC(C)OCc1c(C(=O)OC/C(O)=C(\C#N)c2nc3ccccc3[nH]2)oc2ccccc12	i	-1%
CC(=O)c1cccc(Nc2ccc(-c3ccccc3F)nn2)c1	3%	-9%
Cc1cc(C)c(O)c(-c2cc(C(=O)NCc3ccccc3)[nH]n2)c1	/	?
CC(/C=C/c1ccccc1)=N\NC(=O)c1ccc2c(c1)OCCO2	-9%	-21%
CCO[C@@H]1OC(C(=O)NCc2nc3ccccc3[nH]2)=C[C@H](C(C)(C)C)[C@H]1CCCO	-10%	?
CCC(=NCCc1c(C)[nH]c2ccc(C)cc12)C1=C(O)CC(c2ccccc2)CC1=O (configuration not stated)	?	?
CCc1nn(C(CC)C(=O)NCCCN2CC(C)CC(C)C2)c(=O)c2cc3oc(C)cc3n12 (configuration not stated)	?	-15%[7.34 µM]

From PubChem BioAssay
